Screening data: PubChem BioAssay, National Center for Advancing Translational Sciences (NCATS)
2A Renilla: Primary qHTS Assay for Foot and Mouth Disease Virus Antivirals against NCGC Sytravon and CBC Compound Libraries: Renilla Luciferase Signal. HEK cells with a luciferase reporter of 2A StopGo recoding. Potency, µM (highest dose often 57.5 µM), for the others: top-dose signal change, negative = less light. 120,000 tested, 0.32% active. AID 1745857, 2022; active means well fitted falling curve with a large enough effect; inconclusive means small, poorly fitted or top-dose-only effect; inactive means no such curve, though single readings can be large or run the other way; further: nearly all actives have a fitted effect of over 55% in size; overnight with compound
2A firefly: Primary qHTS Assay for Foot and Mouth Disease Virus Antivirals against NCGC Sytravon and CBC Compound Libraries: Firefly Luciferase Signal; HEK cells with a luciferase reporter of 2A StopGo recoding; Potency, µM (top dose mostly 57.5 µM), for the others: at the highest dose signal change, negative = less light; 120,000 tested, 0.23% active; AID 1745856, 2022; active = well fitted falling curve with a large enough effect; inconclusive = small, poorly fitted or top-dose-only effect; inactive = no such curve, though single readings can be large or run the other way; further: nearly all actives have a fitted effect of over 60% in size; overnight with compound
An asterisk follows results filed as active; ? = inconclusive; & = joins results of further samples; [ ] = another dose, or the depositor's remark. On the % scale 0 is the no-effect control and ±100 the full control effect; potency means the concentration at half of the fitted maximal effect.

SMILES	2A Renilla	2A firefly
CCOc1ccc(NC(=O)COc2ncnc3ccc(Br)cc23)c([N+](=O)[O-])c1	-12.6%	-0.7%
Cc1cc2nc(CSc3nc4ccc(NC(=O)Cc5ccccc5)cc4s3)cc(=O)n2o1	18.7%	17.8%
Cc1ccc(NCCCNc2ncccc2C#N)nc1	11.5%	127.6%[activator]
CC(C)C(C)NC(=O)c1ccccc1Br (stereo not given)	-2.6%	3.8%
COc1ccc(NC(=O)C2=C(C)Nc3nc(SCc4ccc(C)cc4C)nn3C2c2cccc(OC)c2OC)cc1 (stereo not given)	146.8%[activator]	-7.2%
O=C(CSc1nnc(-c2cccs2)o1)NCCc1ccc(F)cc1	-3.6%	3.2%
CCc1ccccc1NC(=O)CN(C)C(=O)C(C)N1CCCC(C(F)(F)F)C1 (stereo not given)	-1.0%	-13.0%
O=c1[nH]cc(F)c(=O)[nH]1	2.7%	0.7%
Cc1ccsc1CN(C)C(=O)Cn1c(=O)c2c(ncn2C2CCCC2)n(Cc2ccccc2)c1=O	0.4%	-6.2%
O=C(Cn1c(=O)c2ccccc2n(CC(=O)Nc2ccc(Cl)cc2)c1=O)NCCc1ccccc1	-15.1%	-7.6%
Cc1ccc(CCNC(=O)CN2CCN(Cc3ccc(Cl)cc3)C2=O)cc1	17.3%	29.7%
CCc1ccccc1NC(=O)CN(c1cc(C(F)(F)F)ccc1Cl)S(=O)(=O)c1ccccc1	173.7%[activator]	-7.3%
COc1ccccc1-c1nnc(SCC(=O)N(C)C2(c3ccccc3Cl)CCCCC2=O)o1 (stereo not given)	8.3%	-12.9%
O=C(Nc1c(C(=O)c2ccccc2)oc2ccccc12)c1ccc(F)cc1	-3.4%	-9.5%
O=C(c1cnn(-c2ccc(F)cc2)c1-n1cccc1)N1CCN(c2ccc(F)cc2)CC1	3.4%	6.0%
COc1ccc(C2=C(Nc3ccc(C)cc3C)c3ccccc3C2=O)cc1	37.1%[activator]	34.9%[activator]
O=C(NCCN1CCN(c2cccc(Cl)c2)CC1)Nc1ccccc1	-10.7%	-8.7%
COc1cccc(CNC(=O)Cn2c(=O)ccc3cc(S(=O)(=O)N4CCCC4)ccc32)c1	-3.3%	-7.9%
Cc1ccc(C(=O)COC(=O)C2C3CC4OC(=O)C2C4C3)cc1 (stereo not given)	3.6%	105.4%[activator]
COc1ccc(Nc2cc(C(=O)NCCCN(C)Cc3ccccc3)c3ccccc3n2)c(OC)c1	-16.1%	-20.8%
Cc1ccc2c(=O)cc(C(=O)N(Cc3ccccc3Cl)C3CCS(=O)(=O)C3)oc2c1 (stereo not given)	11.0%	6.0%
O=C(Cc1ccccc1)Nc1cccc2ncccc12	1.0%	23.0%
CCOc1ccc(NC(=O)CN(c2ccc(C)cc2)S(=O)(=O)c2cccs2)cc1	-11.7%	?
O=C(O)CSCc1ccc(F)cc1	6.5%	48.6%[activator]

Shown field by field: two of the compounds above.
> COc1ccc(Nc2cc(C(=O)NCCCN(C)Cc3ccccc3)c3ccccc3n2)c(OC)c1
  2A Renilla: -16.1%
  2A firefly: -20.8%

> Cc1ccc2c(=O)cc(C(=O)N(Cc3ccccc3Cl)C3CCS(=O)(=O)C3)oc2c1 (stereo not given)
  2A Renilla: 11.0%
  2A firefly: 6.0%

Following part
SMILES	2A Renilla	2A firefly
CC(C)Sc1ncc(Cl)c(C(=O)N(Cc2ccc(N(C)C)cc2)C2CCS(=O)(=O)C2)n1 (stereo not given)	17.7%	-20.7%
Cc1ccccc1NC(=O)COC(=O)CCc1nc2ccccc2s1	-3.1%	9.5%
CCc1ccc(/C=N/O)cc1	-15.0%[1.06 µM]	11.2%
C#CCN1CCC(C(=O)Nc2ccccc2CC)CC1	0.2%	-11.4%
Cc1ccc(-c2nnc(SCC(=O)N3CCCc4ccccc43)o2)cc1	-10.1%	-14.6%
CC(C)NC(=O)CN1CCN(C(=O)c2cc3cc(Br)ccc3[nH]2)CC1	14.3%	0.0%
COC(=O)c1cnc(N2CCN(c3ccccc3OC)CC2)c2ccccc12	-2.9%	-2.6%
COC(=O)C1(C(=O)OC)C2C3C4CC5C6C4C2C6C1C53 (stereo not given)	-2.0%	-4.0%
CCOC(=O)N1CCN(C(=O)CN(c2ccc(F)cc2)S(C)(=O)=O)CC1	2.0%	1.7%
CCn1c(Cn2nnc(-c3ccccc3C)n2)nc2cc(S(=O)(=O)N3CCOCC3)ccc21	34.2%[activator]	6.7%
CCCCOc1ccc(CNC(=O)c2ccc(NC(=O)N3CCSc4ncccc43)cc2)cc1	-15.2%	0.0%
CC1=C(c2ccc(C(C)C)cc2)S(=O)(=O)N=C1N1CCC(C(=O)NC2CCCC2)CC1	0.0%	0.7%
Cc1ccc(NC(=O)C2(c3ccccc3)CCCC2)cc1	8.9%	15.9%
CN1CCN(C(CNC(=O)C(=O)Nc2ccccc2C#N)c2ccc3c(c2)OCO3)CC1 (stereo not given)	13.5%	-23.0%
CC(C)C(=O)NC(NC(=O)C(C)C)c1cc(Br)ccc1F	8.4%	1.6%
CNC(=O)c1ccc(-c2nc(CN3CCN(C(=O)Nc4ccc(OC)cc4OC)CC3)c(C)o2)cc1	-2.1%	6.0%
CC(=O)C12CC3CC(C1)CC(C(=O)O)(C3)C2	12.3%	7.2%
CCN(Cc1ccco1)C(=O)c1[nH]c2c(c1C)C(=O)CC(C)(C)C2	107.5%[activator]	29.9%
CCOc1ccccc1CNC(=O)CCCN1C(=O)CCn2nc(-c3cccn3C)cc21	-8.8%	-5.9%
Cc1cc(C)cc(C(=O)OCC(=O)c2c(C)cc(C)cc2C)c1	3.0%	5.4%
O=C(CSc1nc(-c2ccc(F)cc2)[nH]c1-c1ccc(F)cc1)Nc1ccc2c(c1)OCO2	22.0%	-24.4%
CCOc1cc(CNC(=O)c2sc3ncnc(N(C)C4CCCCC4)c3c2C)ccc1OC	?	?
CC1(C)CC(=O)c2cc(-c3nc(-c4ccc(F)cc4)cs3)c(=O)[nH]c2C1	-11.3%	-14.2%
CSc1nc2c([nH]c3ccccc32)c(=O)n1-c1ccc(C)cc1	2.6%	79.5%[activator]
CN(CC(=O)OC(C)(C)C)C(=O)/C=C/c1cccc(C#N)c1	-4.7%	28.3%
CCN1CCOC(=O)C1CC(=O)Nc1cc(Cl)ccc1C (stereo not given)	-7.8%	-19.0%
Cc1sc(-c2nc(-c3ccc(F)cc3)no2)cc1S(=O)(=O)Nc1ccc(F)cc1	198.9%[activator]	9.9%
Cc1ccn2c(=O)cc(COc3cccc(NC(=O)Nc4cccc(Cl)c4C)c3)nc2c1	-20.8%	0.0%
CCCCc1ccc2nc(NC(=O)OC)[nH]c2c1	32.5%[activator]	57.5%[activator]
CCOc1ccc(C(=O)c2oc3ccccc3c2NC(=O)c2cc(-c3ccc(C)cc3)on2)cc1	-2.7%	-4.7%
COc1cc(-c2nnc(SCC(=O)N(C)C3CCCCC3)o2)cc(OC)c1OC	14.3%&11.1%	5.0%&-7.6%
O=C(c1cnc(N2CCCCC2)c2ccccc12)N1CCN(c2ccc(Cl)cc2)CC1	-7.8%	?
CCOc1ccc(C(=O)NCCc2csc(-c3cccnc3)n2)cc1	-1.9%	92.8%[activator]
CC1=C(C(=O)Nc2ccc(Cl)cc2)C(c2ccccc2)n2ncc(C(=O)Nc3ccccc3)c2N1 (stereo not given)	0.1%	?
O=C(CN1C(=O)COc2ccc(S(=O)(=O)N3CCCC3)cc21)N1CCN(c2ccccc2F)CC1	0.3%	0.1%
Cc1cccc(N2C(N)=C(C#N)C3(C(=O)N(Cc4ccccc4F)c4ccccc43)C3=C2COC3=O)c1 (stereo not given)	19.5%	18.5%
CC(=O)NC(C)c1cc(C(C)(C)C)c(O)c(C(C)(C)C)c1 (stereo not given)	3.8%	-0.9%
Cc1ccc(C)c(Cn2c(C3CC(=O)N(c4ccccc4C)C3)nc3ccccc32)c1 (stereo not given)	22.6%	-14.2%
O=C(Cc1ccccc1F)NC1CCN(C2CC2)C1 (stereo not given)	-3.4%	21.6%
CCS(=O)(=O)N1N=C(c2ccccc2)CC1c1ccc2nccnc2c1 (stereo not given)	10.0%	9.8%
COC(=O)/C(=C1/Oc2c(C)cc(C)cc2S1)C(F)(F)F	7.3%	0.0%
COc1ccc2c(Sc3ccccc3)c(C(=O)N3CCC(C)CC3)[nH]c2c1	-0.4%	54.2%[activator]
Cc1ccc(-c2n[nH]c(-c3ccccn3)n2)cc1	10.1%	0.0%
COCc1ccc(CNC(=O)c2ccc(C#N)cc2)cc1	18.2%	45.0%[activator]
Cc1nnc(N2CCC(C(=O)NC3CCCCC3)CC2)c2nn(-c3ccccc3)c(C)c12	3.0%	-0.4%
Cn1c(=O)c2c(ncn2CC(O)c2cccc(F)c2)n(C)c1=O (stereo not given)	-4.9%	9.5%
Cc1cc(Br)cc(C)c1O	0.5%	3.7%
CC(C)N(CC(O)COCc1ccccc1Cl)CC(O)COc1cccc2ccccc12 (stereo not given)	6.3%[1.06 µM]	-0.3%
Cc1cc(C(=O)Nc2ccccc2C#N)cs1	16.3%	107.1%[activator]
O=C(Nc1ccc(F)cc1)c1ccc2c(Cl)c3c(nc2c1)CCC3	20.9%	0.0%
COc1ccc2c(Sc3ccc(C)cc3)c(C(=O)NCC(C)c3ccccc3)[nH]c2c1 (stereo not given)	80.8%[activator]	-3.4%
COc1ccc(-c2n[nH]c3c2cnc2cc(OC)c(OC)cc23)cc1	-9.9%	-0.8%
Cc1ccc2oc(=O)c3cnn(CC(=O)N4CCN(c5ccccc5F)CC4)c3c2c1	-8.5%	-8.6%
COc1ccc(NC(=O)c2ccc3snnc3c2)cc1OC	8.4%	62.5%[activator]
O=C(Nc1ccc(Cl)cc1)c1ccc2c(c1)N(Cc1ccccc1)CCS2	12.2%	92.6%[activator]
CNC(=O)NC(=O)CCN1CCOC(c2cccc(Br)c2)C1 (stereo not given)	6.3%	16.3%
CCCCCCCC(=O)OCC(COC(=O)CCCCCCC)OC(=O)CCCCCCC	-4.3%	-8.9%
O=C(CCc1ncc(-c2ccc(Cl)cc2)o1)NC1CCS(=O)(=O)C1 (stereo not given)	-7.4%	43.7%[activator]
Cc1cc(=O)oc2cc(OCC(=O)NCCCn3ccnc3)ccc12	-4.1%	4.8%
Nc1ccc(Br)cc1C(=O)c1ccc(Cl)cc1	265.4%[activator]	47.3%[activator]

Some of the entries above, reformatted:
Order of values – 2A Renilla, 2A firefly
COc1ccc(NC(=O)c2ccc3snnc3c2)cc1OC
 : 8.4%, 62.5%[activator]
O=C(Nc1ccc(Cl)cc1)c1ccc2c(c1)N(Cc1ccccc1)CCS2
 : 12.2%, 92.6%[activator]
CNC(=O)NC(=O)CCN1CCOC(c2cccc(Br)c2)C1 (stereo not given)
 : 6.3%, 16.3%
CCCCCCCC(=O)OCC(COC(=O)CCCCCCC)OC(=O)CCCCCCC
 : -4.3%, -8.9%

A run of entries from the list above, as a working copy:
SMILES	2A Renilla	2A firefly
COc1ccc(-c2n[nH]c3c2cnc2cc(OC)c(OC)cc23)cc1	-9.9%	-0.8%
Cc1ccc2oc(=O)c3cnn(CC(=O)N4CCN(c5ccccc5F)CC4)c3c2c1	-8.5%	-8.6%

Additional compounds follow.
SMILES	2A Renilla	2A firefly
O=C(COc1cc(O)c2c(=O)cc(-c3ccccc3)oc2c1)Nc1ccccc1F	-9.9%	2.5%
CC(C)n1c(CN2CCOCC2)nc2c1c(=O)n(C)c(=O)n2C	-3.9%	1.2%
O=C(CSc1nc2c([nH]c3ccccc32)c(=O)n1-c1cccc(Cl)c1)N1CCCC1	-8.8%	-9.1%
COc1cccc(NC(=O)CN(C)S(=O)(=O)c2cccs2)c1	13.1%	121.2%[activator]
Cc1ccc(S(=O)(=O)c2nnn3c2nc(NCc2cccs2)c2sccc23)cc1	9.2%	-6.5%

Complete entries from above:
`CC(C)n1c(CN2CCOCC2)nc2c1c(=O)n(C)c(=O)n2C` as listed: 2A Renilla = -3.9%; 2A firefly = 1.2%
`O=C(COc1cc(O)c2c(=O)cc(-c3ccccc3)oc2c1)Nc1ccccc1F` as listed: 2A Renilla = -9.9%; 2A firefly = 2.5%
